# Screening data as filed in PubChem.
# Insulin prom inh: TRM-6 insulin promoter activity inhibition. inhibition, % at 2 µM. TRM-6 cells (human fetal islet line), insulin promoter-eGFP reporter, imaging; reporter expression induced with tamoxifen. 0.9% of 130,000 active. AID 1273;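 active = inhibition above the mean plus 3 SD, with well images judged a real hit on visual review, cut at about 60% in these data, passing the limit was not always enough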
# RGS16-Gao: regulators of human RGS16-Galphao interaction; O15492+P09471; bead-based flow cytometry RGS16-Galphao binding, fluorescence; actives lie on both sides; binding response (% of control), % at 10 µM; 0.38% of 220,000 active;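 active = below 25% or above 175%, edge rows of some plates excepted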;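 also: Galphao activated by GDP with aluminum fluoride before binding; 100% = wells without compound and 0% = beads without RGS; some results beyond the cut were filed as inactive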
# GALR2 ag: GALR2 (human) receptor agonism | activation, %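 (tested at 5 µM)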 | O43603 | 0.48% of 140,000 active | GALR2-expressing cells, agonist activation read-out;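 active = above mean plus 3 SD of all compounds, about 5% in these data, not always enough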;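 also: 0% = vehicle buffer wells and 100% = reference agonist at full effect; tested in CHO reporter cells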
# PKD1 kinase inh: PKD1 (human) kinase inhibition; Q15139; inhibition, %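 (about 10 µM by stock and volumes)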; 0.056% of 200,000 active; PKD1 kinase fluorescence polarization assay;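 active = inhibition of 50% or more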;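 also: controls were vehicle for no effect and a reference inhibitor for full effect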
# Target sequence (Q15139 whole entry, looked up): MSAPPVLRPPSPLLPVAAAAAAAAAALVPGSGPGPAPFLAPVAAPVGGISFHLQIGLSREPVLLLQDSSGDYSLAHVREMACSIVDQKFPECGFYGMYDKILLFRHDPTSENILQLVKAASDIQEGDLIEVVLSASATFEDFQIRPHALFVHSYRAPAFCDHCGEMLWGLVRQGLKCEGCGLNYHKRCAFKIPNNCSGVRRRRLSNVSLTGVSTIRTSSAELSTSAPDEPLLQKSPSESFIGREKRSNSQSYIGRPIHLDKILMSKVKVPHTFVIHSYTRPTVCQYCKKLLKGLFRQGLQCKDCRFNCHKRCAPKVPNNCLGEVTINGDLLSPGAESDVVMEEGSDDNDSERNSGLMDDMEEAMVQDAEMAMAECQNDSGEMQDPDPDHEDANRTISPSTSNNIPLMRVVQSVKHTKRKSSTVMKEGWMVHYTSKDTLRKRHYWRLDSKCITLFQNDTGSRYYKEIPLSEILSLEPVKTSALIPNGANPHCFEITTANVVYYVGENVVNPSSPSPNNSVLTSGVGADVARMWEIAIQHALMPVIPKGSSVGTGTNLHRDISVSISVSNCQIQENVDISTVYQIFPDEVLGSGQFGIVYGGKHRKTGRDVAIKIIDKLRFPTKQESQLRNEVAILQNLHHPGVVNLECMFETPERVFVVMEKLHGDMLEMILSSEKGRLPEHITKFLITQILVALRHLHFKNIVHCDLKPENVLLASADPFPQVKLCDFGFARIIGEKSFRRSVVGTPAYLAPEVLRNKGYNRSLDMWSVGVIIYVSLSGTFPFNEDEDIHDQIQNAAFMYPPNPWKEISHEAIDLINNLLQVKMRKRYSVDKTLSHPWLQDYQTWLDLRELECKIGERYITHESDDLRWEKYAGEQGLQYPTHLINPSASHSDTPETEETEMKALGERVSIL
# HSV replic up: increases HSV replication in cells; HSV replication augmentation in cells, fold increase; maximum fold increase; 0.005% of 220,000 active;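 active = peak rise of 1.5-fold or more in the series; tested in PC3 cells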;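 also: first round at 10 µM; read as green reporter fluorescence; hits show the peak of a series up to 25 µM; 1 = signal of infected wells without compound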
# Insulin prom inh cell count: further read-out of Insulin prom inh, marked with its call; normalized cell count, %; measured here: cell count, toxicity; reference of the scale not given here;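 cells exposed to compound for 48 h; stained nuclei by imaging scaled within each plate; lower means fewer cells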
# HSV replic up primary fold: further read-out of HSV replic up, marked with its call; fold increase; compound at 10 µM; measured here: primary screen fold increase 10 uM; tested in PC3 cells;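 GFP signal in the first replicate; 1 = infected wells without compound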
# Starred values were filed as active, the others as inactive; i = inactive; · = not tested or not shown.
# Short keys – A = Insulin prom inh; B = Insulin prom inh cell count; C = RGS16-Gao; D = GALR2 ag; E = PKD1 kinase inh; F = HSV replic up; G = HSV replic up primary fold
Cc1ccc(-n2ccnc2SCC(=O)O)c(C)c1
  A = -3 | B = 64 | C = 102 | D = -1.4 | E = -2 | F = i | G = 0.97

Cc1nnc(NC(=O)c2ccc(S(=O)(=O)N(C)Cc3ccccc3)cc2)o1
  A = 29 | B = 80 | C = 95 | D = -0.7 | E = -10 | F = i | G = 0.95

CCCCN(C)C(=O)c1cc2cc3ccc(OC)cc3nc2s1
  A = 51 | B = 93 | C = 101 | D = -0.6 | E = -7 | F = i | G = 0.88

COCCn1nnnc1C(c1cccc(C#N)c1)N1CCCCCC1 (configuration not stated)
  A = 3 | B = 104 | C = 108 | D = -1.4 | E = -8 | F = i | G = 0.78

Cc1cccc(N2C(=O)CC(SC(N)=Nc3ccccc3)C2=O)c1 (configuration not stated)
  A = · | B = · | C = 118 | D = · | E = -6 | F = i | G = 1.1

CC(=O)N(C(C)=O)N1C(=O)C2C3c4ccccc4C(c4ccccc43)C2C1=O (configuration not stated)
  A = -94 | B = 64 | C = 101 | D = · | E = -6 | F = i | G = 0.95

c1ccc(N2CCN(c3nc(NCc4ccco4)c4ccccc4n3)CC2)cc1
  A = -33 | B = 73 | C = 75 | D = -0.2 | E = 8 | F = i | G = 0.79

O=c1c2ccccc2[nH]c(=S)n1CC1CCCO1 (configuration not stated)
  A = -12 | B = 163 | C = · | D = -2.1 | E = -4 | F = i | G = 0.94

COc1ccccc1/C=C/C(=O)OCCN1CCOCC1
  A = 36 | B = 103 | C = 97 | D = -1.3 | E = -4 | F = i | G = 0.87

Cc1ccc2cc(/C=C3\N=C(c4ccccc4)OC3=O)c(N3CCOCC3)nc2c1
  A = -54 | B = 85 | C = 40 | D = 0.3 | E = 5 | F = i | G = 1

COc1ccc(/C=C(/NC(=O)c2ccccc2)c2nc3ccccc3[nH]2)cc1OC
  A = 30 | B = 90 | C = 103 | D = -3.2 | E = -1 | F = i | G = 0.96

COC(=O)c1cc(C(=O)OC)[nH]n1
  A = · | B = · | C = 105 | D = · | E = 1 | F = i | G = 1

CC(c1ccccc1)N1CC(C(=O)N2CCN(c3ccc(F)cc3)CC2)CC1=O (configuration not stated)
  A = 0 | B = 107 | C = 104 | D = -1.4 | E = -9 | F = i | G = 0.92

CCOC(=O)CSc1nnc(CNC(=O)c2ccc(S(=O)(=O)N3CCOCC3)cc2)n1C
  A = · | B = · | C = 104 | D = · | E = -5 | F = i | G = 0.96

CCNC(=O)CN(c1ccc(Br)c(C)c1)S(C)(=O)=O
  A = · | B = · | C = 101 | D = · | E = -2 | F = i | G = 1.1

C/[N+]([O-])=C\c1coc2ccccc2c1=O
  A = 29 | B = 211 | C = 103 | D = -0.2 | E = 3 | F = i | G = 0.83

NNC(=O)[C@@H]1C[C@@H]1c1ccccc1
  A = -10 | B = 103 | C = 98 | D = 1.9 | E = 9 | F = i | G = 0.83

CCOc1ccccc1C(=O)OCC(=O)Nc1ccc(N2CCCCC2)cc1
  A = -32 | B = 90 | C = 88 | D = -2.0 | E = -6 | F = i | G = 0.73

CC/C(=N\NC(=O)c1cc(C)nc2ccccc12)c1ccc(C)s1
  A = -44 | B = 23 | C = 101 | D = -1.3 | E = -12 | F = i | G = 0.55

CCCCCC(=O)Nc1ccc(-c2cn3cccnc3n2)cc1
  A = · | B = · | C = 101 | D = · | E = -2 | F = i | G = 1

COc1ccccc1NC(=O)CN(Cc1ccco1)C(=O)c1ccc(-n2nc(C)cc2C)cc1
  A = 21 | B = 122 | C = 97 | D = -1.7 | E = 5 | F = i | G = 0.68

CC(O)CNCCOc1ccccc1OCc1ccccc1 (configuration not stated)
  A = · | B = · | C = 108 | D = · | E = 8 | F = i | G = 0.94

Cc1cc(C)n(-c2ccc(C(=O)NC3CCCCC3)cc2)n1
  A = · | B = · | C = 111 | D = · | E = 3 | F = i | G = 1.1

O=C(NCc1ccc(F)cc1)C1CCN(C(=O)NCc2ccccc2)CC1
  A = -16 | B = 38 | C = 148 | D = -3.8 | E = 0 | F = i | G = 0.89

CCC1CCCCN1C(=O)CSc1nc(N)c(NC(=O)c2ccco2)c(=O)[nH]1 (configuration not stated)
  A = 20 | B = 76 | C = 105 | D = 0.0 | E = -6 | F = i | G = 0.96

Cc1ccc(CS(=O)(=O)c2nsc(C)c2C#N)cc1
  A = -46 | B = 97 | C = 97 | D = · | E = -6 | F = · | G = ·

COc1ccc(Oc2c(C)nc(SCC(=O)c3ccc(Cl)cc3)[nH]c2=O)cc1
  A = · | B = · | C = 99 | D = · | E = · | F = i | G = 0.85

Fc1ccc(C2c3cccn3CCN2C(=S)Nc2cccc(Br)c2)cc1 (configuration not stated)
  A = 8 | B = 94 | C = 80 | D = · | E = -4 | F = i | G = 0.97

Brc1cc2c(cc1Br)OCCOCCOCCO2
  A = · | B = · | C = 109 | D = · | E = · | F = i | G = 0.82

CCCc1nc2n[nH]c(N)c2c2c1CCCC2
  A = -6 | B = 99 | C = 106 | D = -0.6 | E = 6 | F = i | G = 0.98

Cn1c(-c2sccc2OCc2cccc(C(F)(F)F)c2)n[nH]c1=S
  A = · | B = · | C = 93 | D = · | E = 13 | F = i | G = 0.94

COc1ccccc1Cn1c(=S)[nH]c2cc(C(=O)N3CCN(C)CC3)ccc2c1=O
  A = -7 | B = 123 | C = 97 | D = 0.8 | E = -5 | F = i | G = 1

Cc1ccc(OCC(=O)N/N=C2/SCC(=O)N2Cc2ccccc2)cc1
  A = 3 | B = 106 | C = 98 | D = -0.2 | E = 7 | F = i | G = 1

Cc1c(NC(=O)c2ccc3c(c2)C(=O)N(Cc2ccco2)C3=O)cccc1C(=O)O
  A = -18 | B = 138 | C = 100 | D = · | E = -6 | F = i | G = 0.96

O=c1oc2ccccc2c(O)c1/C=N/c1ccccn1
  A = -39 | B = 114 | C = 89 | D = -1.7 | E = -2 | F = i | G = 1

C=CCn1c(=NC(=O)CN2C(=O)CCC2=O)sc2cc(S(N)(=O)=O)ccc21
  A = 0 | B = 110 | C = 100 | D = 0.1 | E = 5 | F = i | G = 1

COc1ccc(C(C(=O)NC2CCCCC2)N(C(=O)c2sc(C)nc2C)c2ccc(C(C)=O)cc2)cc1 (configuration not stated)
  A = 17 | B = 144 | C = 109 | D = -0.6 | E = -1 | F = i | G = 0.91

CC1(C)Cc2c(sc3nc(-c4ccccc4)oc(=O)c23)CO1
  A = 25 | B = 146 | C = 94 | D = -1.5 | E = 0 | F = i | G = 0.83

COCCNC(=O)C(=O)N/N=C(\C)CC(=O)Nc1ccc2c(c1)OCO2
  A = · | B = · | C = 100 | D = · | E = 0 | F = i | G = 0.81

Cc1cccc(OCCn2c(S(=O)(=O)O)nc3ccccc32)c1
  A = 43 | B = 143 | C = 97 | D = -1.1 | E = -3 | F = i | G = 0.69

COC(=O)c1ccc(CSc2nnc(C)n2N)o1
  A = -55 | B = 41 | C = 91 | D = -1.8 | E = 9 | F = i | G = 1

NNC(=O)Cn1nnc(-c2ccc(C(F)(F)F)cc2)n1
  A = · | B = · | C = 100 | D = · | E = · | F = i | G = 0.79

COc1nc(-c2ccc(Cl)cc2)ccc1-c1noc(-c2ccncc2)n1
  A = 59 | B = 136 | C = · | D = -4.4 | E = -1 | F = · | G = ·

O=C(CCNC(=O)c1ccco1)NCc1ccccc1
  A = 46 | B = 114 | C = · | D = -0.6 | E = 1 | F = i | G = 0.91

Cc1cc(NC(=O)CSC2=Nc3ccccc3C3=NC(Cc4ccccc4)C(=O)N23)n[nH]1 (configuration not stated)
  A = 8 | B = 36 | C = 97 | D = -0.5 | E = 1 | F = i | G = 0.96

# Compound profiles, from the list above. Screens in order: Insulin prom inh, Insulin prom inh cell count, RGS16-Gao, GALR2 ag, PKD1 kinase inh, HSV replic up, HSV replic up primary fold
# `COc1ccc(C(C(=O)NC2CCCCC2)N(C(=O)c2sc(C)nc2C)c2ccc(C(C)=O)cc2)cc1` (configuration not stated) reads 17, 144, 109, -0.6, -1, i, 0.91
# `COCCNC(=O)C(=O)N/N=C(\C)CC(=O)Nc1ccc2c(c1)OCO2` reads ·, ·, 100, ·, 0, i, 0.81

# (cont.)
# Short keys – A = Insulin prom inh; B = Insulin prom inh cell count; C = RGS16-Gao; D = GALR2 ag; E = PKD1 kinase inh; F = HSV replic up; G = HSV replic up primary fold
CCN(Cc1ccccc1)C(=O)c1cc(COc2c(F)cccc2F)on1
  A = · | B = · | C = 105 | D = · | E = · | F = i | G = 0.87

CC(C)(C)C1CCc2onc(C(=O)N3CCOCC3)c2C1 (configuration not stated)
  A = · | B = · | C = 101 | D = -1.2 | E = -4 | F = i | G = 1

COc1nc(OC)nc(N2CCC(C(=O)NC3CCCCCC3)CC2)n1
  A = -3 | B = 54 | C = 102 | D = 0.5 | E = -5 | F = i | G = 0.87

CCn1c2ccccc2c2cc(NC(=O)c3cc(OC)c(OC)c(OC)c3)ccc21
  A = 32 | B = 90 | C = 59 | D = 0.6 | E = 10 | F = i | G = 0.6

CCC(=O)Nc1cc(C(=O)O)ccc1Sc1ccc(C)cc1
  A = · | B = · | C = 95 | D = · | E = -2 | F = i | G = 1.1

O=S1(=O)NC(=NCCc2ccccn2)c2ccccc21
  A = · | B = · | C = 97 | D = · | E = 0 | F = i | G = 0.94

Cc1cc2cc(CNC(=S)Nc3ccc(OC(F)F)cc3)ccc2n1C
  A = -51 | B = 109 | C = 119 | D = -1.0 | E = -8 | F = · | G = ·

CCOC(=O)C1CCN(C(=O)CC(C)c2ccccc2)CC1 (configuration not stated)
  A = -55 | B = 75 | C = 85 | D = -2.4 | E = -1 | F = i | G = 0.94

COc1cccc(C2CC3(CC(C)(C)NC(=S)N3)Oc3cc(O)ccc32)c1 (configuration not stated)
  A = -13 | B = 90 | C = 98 | D = 0.3 | E = 0 | F = i | G = 0.91

COc1cc(C(=S)N2CCCC2)cc(Cl)c1O
  A = 7 | B = 102 | C = 97 | D = -2.2 | E = -6 | F = i | G = 0.91

O=C(CCn1ccc2ccccc21)NC1CCCc2ccccc21 (configuration not stated)
  A = -20 | B = 108 | C = 105 | D = -1.9 | E = -8 | F = i | G = 0.96

Cc1nnc(OC(C)C)c2nn(-c3ccccc3F)c(C)c12
  A = · | B = · | C = 102 | D = -0.3 | E = 3 | F = i | G = 0.78

COc1cccc(/C=C/C(=O)OCC(=O)N2c3ccccc3NC(=O)C2(C)C)c1
  A = · | B = · | C = 98 | D = -0.7 | E = -8 | F = i | G = 0.97

FC(F)(F)c1cnc(NNC(=S)Nc2cccnc2)c(Cl)c1
  A = -14 | B = 89 | C = 102 | D = · | E = -8 | F = i | G = 1.1

Cc1ccc(NCC(=O)N/N=C/c2ccc(C(=O)O)cc2)cc1
  A = · | B = · | C = 98 | D = · | E = · | F = i | G = 1.2

O=[N+]([O-])c1cc(C(F)(F)F)ccc1N1CCN(S(=O)(=O)c2ccc3c(c2)CCCC3)CC1
  A = 0 | B = 82 | C = 110 | D = -0.8 | E = -3 | F = i | G = 0.98

O=C(CSc1ccc(Br)c2cccc(Cl)c12)Nc1ccc(S(=O)(=O)Nc2nccs2)cc1
  A = · | B = · | C = 99 | D = · | E = -4 | F = i | G = 1

COc1cccc(OC)c1C(=O)N1CCN(Cc2ccncc2)CC1
  A = 19 | B = 65 | C = 101 | D = -2.5 | E = -10 | F = i | G = 0.71

CCCc1n(CC(O)COCC2CC=CCC2)c2ccccc2[n+]1C (configuration not stated)
  A = · | B = · | C = 109 | D = · | E = 6 | F = i | G = 0.96

Fc1ccccc1N=C1Nc2cccc3cccc1c23
  A = 89* | B = 172* | C = 102 | D = · | E = 2 | F = i | G = 0.98

CCc1[nH]nc(C(=O)N2CCCC(CCC(=O)N3CCN(c4ccccn4)CC3)C2)c1C (configuration not stated)
  A = 0 | B = 133 | C = 120 | D = · | E = -9 | F = i | G = 0.93

Nc1cc(-c2ccc(Cl)cc2)nn1S(=O)(=O)c1ccc(Cl)cc1
  A = · | B = · | C = 100 | D = -1.6 | E = -6 | F = i | G = 0.91

Cc1ccc(NC2=CC(=O)CC(C)(C)C2)c(N)c1
  A = -22 | B = 59 | C = 96 | D = -0.5 | E = -2 | F = i | G = 0.97

# 4 entries drawn at random from the list so far:
# Short keys – A = Insulin prom inh; B = Insulin prom inh cell count; C = RGS16-Gao; D = GALR2 ag; E = PKD1 kinase inh; F = HSV replic up; G = HSV replic up primary fold
CC(O)CNCCOc1ccccc1OCc1ccccc1 (configuration not stated)
  A = · | B = · | C = 108 | D = · | E = 8 | F = i | G = 0.94

CC(c1ccccc1)N1CC(C(=O)N2CCN(c3ccc(F)cc3)CC2)CC1=O (configuration not stated)
  A = 0 | B = 107 | C = 104 | D = -1.4 | E = -9 | F = i | G = 0.92

COc1ccccc1/C=C/C(=O)OCCN1CCOCC1
  A = 36 | B = 103 | C = 97 | D = -1.3 | E = -4 | F = i | G = 0.87

COCCn1nnnc1C(c1cccc(C#N)c1)N1CCCCCC1 (configuration not stated)
  A = 3 | B = 104 | C = 108 | D = -1.4 | E = -8 | F = i | G = 0.78
